HEK cytotox: Cytotoxic Profiling in HEK 293 Cell Line of Diverse Libraries Using Quantitative High-Throughput Screening. HEK 293 viability, ATP luminescence (CellTiter-Glo), 48-72 h. Potency, µM (series often up to 115 µM), without a hit: top-dose activity change, negative = cytotoxicity, most hits filed as inhibitors. 6.6% of 94,000 active. AID 1345083, 2018; further: nearly all actives have a fitted effect of over 60% in size
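HEK 293 cells seeded at 250 cells/well were exposed to compound for 48 or 72 hr at 37 degree Celsius. Viability taken as ATP content by CellTiter-Glo luminescence.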
FLuc inh: Firefly luciferase inhibition profiling of diverse chemical library using quantitative high-throughput screening; Luciferin 4-monooxygenase (Photinus pyralis), P08659; Potency, µM (top dose mostly 115 µM), inactives show at the highest dose activity change, negative = inhibition, usual class: inhibitors; 2.5% of 76,000 active; purified P. pyralis luciferase, luminescence, biochemical; further: nearly all actives have a fitted effect of over 65% in size
Target sequence (P08659 whole entry, looked up): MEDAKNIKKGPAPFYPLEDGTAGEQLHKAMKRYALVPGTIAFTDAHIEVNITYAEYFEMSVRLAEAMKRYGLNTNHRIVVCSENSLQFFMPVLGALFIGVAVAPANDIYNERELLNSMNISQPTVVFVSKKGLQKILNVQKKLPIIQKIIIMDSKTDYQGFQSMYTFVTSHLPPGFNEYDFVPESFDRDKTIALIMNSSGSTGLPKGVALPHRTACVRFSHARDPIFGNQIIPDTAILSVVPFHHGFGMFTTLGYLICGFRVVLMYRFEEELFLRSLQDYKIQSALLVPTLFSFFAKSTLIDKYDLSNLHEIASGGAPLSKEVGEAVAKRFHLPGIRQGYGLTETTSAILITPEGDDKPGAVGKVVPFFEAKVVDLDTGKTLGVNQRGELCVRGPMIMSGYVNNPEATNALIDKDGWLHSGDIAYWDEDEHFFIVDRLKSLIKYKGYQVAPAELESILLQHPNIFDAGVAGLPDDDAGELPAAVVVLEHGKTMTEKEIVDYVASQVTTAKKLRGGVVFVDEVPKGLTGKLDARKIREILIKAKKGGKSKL
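Biochemical qHTS: compound (6-point titration) added to 10uM D-luciferin plus 10uM ATP in Tris acetate pH 7.5 buffer with Mg, Tween-20 and BSA, then purified enzyme at 10nM; light output imaged.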
3T3 cytotox: Cytotoxic Profiling in NIH 3T3 Cell Line of Diverse Libraries Using Quantitative High-Throughput Screening; NIH 3T3 viability, CellTiter-Glo ATP luminescence, 48-72 h; Potency, µM (top dose mostly 96.7 µM), for the others: at the highest dose activity change, negative = cytotoxicity, actives largely listed as inhibitors; 4.3% of 94,000 active; further: nearly all actives have a fitted effect of over 55% in size
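Cytotoxicity is measured as loss of cellular ATP: NIH 3T3 cells (400/well) are exposed to compound for 48 or 72 hr at 37 °C, then CellTiter-Glo luminescence is imaged after 10 min at room temperature.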
SNCA expr inh: Primary qHTS assay for inhibitors of alpha-synuclein gene (SNCA) expression; Potency, µM (titrated, usually from 57.2 µM), without a hit: top-dose activity change, negative = inhibition, usual class: inhibitors; HEK-293 SNCA-luciferase knock-in, luminescence, 24 h; 0.17% of 140,000 active; AID 1671194, 2021;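 further: plate controls were DMSO cells for no effect and cell-free wells for full effect; nearly all actives have a fitted effect of over 45% in size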
Active calls of the source: *; i = inactive; ? = inconclusive; . = not tested or not shown; [ ] = dose if it differs, or a comment. The call rests on the fitted dose curve; in most records, active means well fitted curve in the direction sought with a large enough effect; inconclusive means small, poorly fitted or top-dose-only effect, or another doubt; inactive means no such curve, though single readings can be large; an effect the other way counts as inactive or inconclusive. Unless noted, on the % scale 0 is the no-effect control and ±100 the full control effect; potency means the concentration at half of the fitted maximal effect. An excerpt; count on the stated rates, not on these rows.

Assay codes – A = HEK cytotox; B = FLuc inh; C = 3T3 cytotox; D = SNCA expr inh
CC(=O)N1CCC(Cc2ccc(C(=O)N(C)CCc3c(C)nn(C)c3C)cc2)CC1
  A: ? | B: . | C: ? | D: -14%
CCn1nc(CC(C)C)cc1C(=O)N1CCN(c2nc(C)cc(C)n2)CC1
  A: ? | B: -5% | C: ? | D: 3%
O=C(CCC1CCN(C(=O)c2ccccc2)CC1)NCCCN1CCCC1=O
  A: 8% | B: -1% | C: -2% | D: 12%
O=c1c2nc(Nc3ccccc3)ccc2ncn1-c1cccnc1
  A: . | B: . | C: . | D: -26%[87.6 µM]
COCCNC(=O)N1CCc2nc(N(C)C)[nH]c(=O)c2CC1
  A: 3% | B: -4% | C: i | D: 7%
NC(=O)CN1CCCC(c2nc(-c3ccc4nc[nH]c4c3)no2)C1 (stereo unspecified)
  A: i | B: -13% | C: -20% | D: 17%
CN1[C@@H]2CCC[C@@H]1CC(NC(=O)c1nn(C)c3ccccc13)C2 (stereo partly specified)
  A: . | B: . | C: . | D: 19%
O=C(NCCN1CCC(Cc2ccccc2)CC1)C1(CCO)CC12CCOCC2 (stereo unspecified)
  A: -25% | B: 2% | C: -20% | D: 24%
Cn1nc(OC(C)(C)C(=O)NCCOc2ccccc2)c2cc(CN3CCCC3)ccc21
  A: ? | B: 0%[172 µM] | C: ? | D: -13%[87.6 µM]
CCCN(CCC)C(=O)C1COC2(CCC(C)CC2)N1C(=O)c1ccc(F)cc1 (stereo unspecified)
  A: ? | B: 4% | C: ? | D: -16%
CCCN(CC1CC1)C(=O)CCC[C@@H]1[C@H]2CCCN3CCC[C@@H](CN1C(C)=O)[C@@H]23
  A: 13% | B: 8% | C: -9% | D: 22%
COC(=O)c1[nH]ncc1CN1CCC(c2nc(-c3ccccc3)no2)CC1
  A: -2% | B: 3% | C: -19% | D: -2%
CC(C)c1nc2c(NC(=O)c3cccc(Br)c3)cccn2n1
  A: ? | B: -6% | C: -27% | D: 34%[activator]
CC(C)c1ccc(NC(=O)CCC2CCN(C(=O)c3ccccc3)CC2)cc1
  A: ? | B: -5% | C: -30% | D: -15%
COCCN1C(=O)C(CC(=O)NC2CCS(=O)(=O)C2)=C2CCCCC21 (stereo unspecified)
  A: -3% | B: 3% | C: i | D: ?

Seven entries from above, arranged by count of non-hydrogen atoms, falling.
Assay codes – A = HEK cytotox; B = FLuc inh; C = 3T3 cytotox; D = SNCA expr inh
Cn1nc(OC(C)(C)C(=O)NCCOc2ccccc2)c2cc(CN3CCCC3)ccc21
  A: ? | B: 0%[172 µM] | C: ? | D: -13%[87.6 µM]
CC(=O)N1CCC(Cc2ccc(C(=O)N(C)CCc3c(C)nn(C)c3C)cc2)CC1
  A: ? | B: . | C: ? | D: -14%
O=C(NCCN1CCC(Cc2ccccc2)CC1)C1(CCO)CC12CCOCC2 (stereo unspecified)
  A: -25% | B: 2% | C: -20% | D: 24%
COCCN1C(=O)C(CC(=O)NC2CCS(=O)(=O)C2)=C2CCCCC21 (stereo unspecified)
  A: -3% | B: 3% | C: i | D: ?
O=c1c2nc(Nc3ccccc3)ccc2ncn1-c1cccnc1
  A: . | B: . | C: . | D: -26%[87.6 µM]
CN1[C@@H]2CCC[C@@H]1CC(NC(=O)c1nn(C)c3ccccc13)C2 (stereo partly specified)
  A: . | B: . | C: . | D: 19%
CC(C)c1nc2c(NC(=O)c3cccc(Br)c3)cccn2n1
  A: ? | B: -6% | C: -27% | D: 34%[activator]

Additional results:
Assay codes – A = HEK cytotox; B = FLuc inh; C = 3T3 cytotox; D = SNCA expr inh
O=C(O)/C=C\C(=O)O
  A: . | B: . | C: . | D: -2%[25.6 µM]
NC(=O)CN1CCC(c2nc(-c3cn4ccccc4n3)no2)CC1
  A: i | B: -14% | C: -1% | D: 10%
CC(C)(Oc1nn(CC2CC2)c2ccc(CN3CCCC3)cc12)C(=O)NCC(F)(F)F
  A: ? | B: -11%[172 µM] | C: ? | D: -2%[87.6 µM]
Cc1cnc(C(=O)N2CCCCCC2CN2CCCC2)cn1 (stereo unspecified)
  A: 3% | B: 5% | C: -14% | D: 6%
Cc1nn(-c2cccc(Br)c2)c(C)c1[C@@H]1C=C[C@@H](NS(=O)(=O)c2ccccc2)C1
  A: 45µM* | B: ? | C: ? | D: -19%
CC(=O)N1C[C@@H]2CCCN3CCC[C@@H]([C@H]23)[C@H]1CCCC(=O)N1CCNC(=O)C1
  A: -6% | B: 9% | C: i | D: 7%

A different layout for 2 compounds above:
The line under a structure holds: HEK cytotox | FLuc inh | 3T3 cytotox | SNCA expr inh
- O=C(O)/C=C\C(=O)O
  . | . | . | -2%[25.6 µM]
- NC(=O)CN1CCC(c2nc(-c3cn4ccccc4n3)no2)CC1
  i | -14% | -1% | 10%
